Screens deposited in PubChem by Southern Research Specialized Biocontainment Screening Center.
quorum sensing = Vibrio cholerae quorum sensing activators, luminescence (AID 686977) | V. cholerae quorum sensing reporter, luminescence, 6 h; higher luminescence means a stronger effect; most inactives read 0 | luminescence at 50 µM unless noted; hits with a dose series show EC50 in µM | 9,400 tested, under 10 active;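 active = light above mean plus 3 SD and confirmed in a dose series; inconclusive = above that limit without a clear retest; inactive = below it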;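 note: raw light counts without normalisation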
* marks the source's active call; other numbers are inactive results; ? = inconclusive; [ ] = another dose, or the depositor's remark.

SMILES | quorum sensing
Cc1nc2ccc(C(=O)O)cc2c2c1CC(C)S2 (configuration not stated) | 0
Cn1c(C(=O)NCCCN2CCCC2=O)cc2c(=O)n(C)c3ccccc3c21 | 0
COc1cccc(C2CC(c3ccc(C)cc3)n3ncnc3N2)c1 (configuration not stated) | 240
Cc1cc(C)cc(C(=O)NCCn2cc(SCC(=O)N3CCOCC3)c3ccccc32)c1 | 0
CCCc1[nH]nc2c1C1(C(=O)N(CC)c3ccccc31)C(C#N)=C(N)O2 (configuration not stated) | 0
COC(=O)CNC(=O)c1cccc(F)c1 | 0
CCc1nn(CC(=O)NCCCN2CCc3ccccc3C2)c(=O)c2cc3sccc3n12 | 0
O=C(NC1CCCCC1)C1CCCN(S(=O)(=O)c2cnc[nH]2)C1 (configuration not stated) | 0
Cc1cc(C)c(C)c(OCC(=O)O/N=C(\N)c2ccccn2)c1 | 0
COc1cc2nc(NC(=O)c3ccccc3)[nH]c(=O)c2cc1OC | 240
CC(C)(C)c1cnnn1-c1ccc(C(=O)CCl)cc1 | 40
O=[N+]([O-])c1cc(C(F)(F)F)ccc1NCCCCNS(=O)(=O)c1ccc2ccccc2c1 | 0
CCC1CCCCN1CCNC(=O)c1[nH]c(C)c(C(C)=O)c1C (configuration not stated) | 0
O=C1C(CCS(=O)c2ccccc2)C(=O)N(c2ccccc2)N1c1ccccc1 (configuration not stated) | ?
CC[C@@]1([C@@H]2O[C@@H]([C@H]3O[C@@](O)(CO)[C@H](C)C[C@@H]3C)C[C@@H]2C)CC[C@H]([C@]2(C)CC[C@]3(C[C@H](O)[C@@H](C)[C@@H]([C@@H](C)[C@@H](OC)[C@H](C)C(=O)O)O3)O2)O1 | 0[10 µg/mL]
COc1ccc(Cc2nc(-c3ccc(-n4cccc4)cc3)no2)cc1OC | 40
Cc1cc(-c2nc3ncccc3o2)ccc1NC(=O)CC(C)C | 0
CCN1CCN(C(c2cccs2)C(C)NS(=O)(=O)c2ccc(F)cc2)CC1 (configuration not stated) | 40
Cc1nn(-c2ccccc2)c(C)c1/C=N/O | 40
COC(=O)c1ccc(CSc2nnc(-c3c[nH]c4ccccc34)n2C)o1 | 0
CNC1(C)C2CCC(C2)C1(C)C (configuration not stated) | 0[10 µg/mL]
CCOC(=O)C1=C(CN2CCCCC2)NC(=O)NC1c1cc(C)ccc1C (configuration not stated) | 0
Cc1ccc(C)c(-c2nn(-c3cc(N4CCN(CCO)CC4)ccc3[N+](=O)[O-])c(=O)c3ccccc23)c1 | 0
Clc1ccc(COC(Cn2ccnc2)c2ccc(Cl)cc2Cl)c(Cl)c1 (configuration not stated) | 0[10 µg/mL]
Cc1cc2nnc(SCC(=O)NCc3cccs3)n2c(N)n1 | 0

Continued; the last 2 above are carried over.
SMILES | quorum sensing
Clc1ccc(COC(Cn2ccnc2)c2ccc(Cl)cc2Cl)c(Cl)c1 (configuration not stated) | 0[10 µg/mL]
Cc1cc2nnc(SCC(=O)NCc3cccs3)n2c(N)n1 | 0
Cc1ccc(S(=O)(=O)NC(CC(=O)n2nc(C)cc2C)c2ccccc2)cc1 (configuration not stated) | 40
Cc1ccc(CN(C)C(=O)C2CCCN2C(=O)c2cccs2)o1 (configuration not stated) | 320
N/C(=N\OC(=O)c1cccc(F)c1)c1ccccc1 | 0
CCC(CC)C1C(C#N)=C(N)Oc2cc(C)oc(=O)c21 (configuration not stated) | 0
CCOC(=O)CC(=O)CSc1nc(-c2ccc3c(c2)OCO3)cc(C(F)(F)F)c1C#N | 0
Cc1ccc(C(=O)c2cc3c(cc2N)OCCO3)cc1 | 0
COc1cc2c(cc1OC)CN(C(=O)CSc1nc3[nH]ncc3c(=O)n1-c1ccccc1)CC2 | 40
NC(=O)C1CCN(C(=O)c2cc3ccccn3n2)CC1 | ?
CCOCCCNC(=O)CN1CCN(Cc2ccccc2C)C1=O | 0
CC(=O)N(Cc1ccc2c(c1)OCO2)C1CC(=O)N(CCc2ccccc2)C1=O (configuration not stated) | 0
Cc1nnc(NC(=O)c2ccncc2)s1 | 40
Nc1ccc(S(=O)(=O)NC(=O)c2ccccc2)cc1 | 0[10 µg/mL]
CC1=C(C(N)=O)C(c2ccncc2)n2nc(-c3ccccc3Cl)nc2N1 (configuration not stated) | 0
COc1ccc(NC(=O)C2CCN(S(=O)(=O)c3cccc4cccnc34)CC2)cc1 | ?
C[C@]12C=CC(=O)C=C1CC[C@@H]1[C@@H]2[C@@H](O)C[C@@]2(C)[C@H]1CC[C@]2(O)C(=O)CO | 0[10 µg/mL]
COc1cccc(NC(=O)c2nnn(CCc3ccccc3)c2N)c1 | 0
Clc1cccc(Nc2ncnc3c2cnn3-c2ccccc2)c1 | 0
CCOc1ccc(NC(=S)/C(=C(\[O-])c2ccc(C)c([N+](=O)[O-])c2)[n+]2ccccc2)cc1 | 40
N#Cc1cnc(SCCc2ccccc2)nc1N | 240
CCCCN(CC)CCNC(=O)c1cc2c(=O)n(C)c3ccccc3c2n1C | 0
CC(C)N(C#N)c1nc(N2CCOCC2)nc(N2CCOCC2)n1 | 0
C=CCNC(=S)NNC(=O)C(CCCC)CC(C)O (configuration not stated) | 0
CC(C)COP(=O)(c1ccc(N(C)C)cc1)C(O)c1ccncc1 (configuration not stated) | 0
COc1ccccc1NC(=O)c1nn(-c2ccc(F)c(F)c2)ccc1=O | 0
COc1ccccc1N1C(=O)NC(=O)C(CCc2ccncc2)(CCc2ccncc2)C1=O | 0

Remaining list, next part
SMILES | quorum sensing
C#CCN1C(=O)C2C(C(=O)NC)C3C=CC2(O3)C1C(=O)NCc1ccc(OC)cc1 (configuration not stated) | 40
Cc1ccc(Oc2cc(C#N)c(C#N)cc2-n2nnc3ccccc32)cc1C | 40
O=C(NCc1cccs1)C1CCCN(c2ncccn2)C1 (configuration not stated) | 0
Cc1onc(-c2c(F)cccc2Cl)c1C(=O)N[C@@H]1C(=O)N2C(C(=O)O)C(C)(C)S[C@H]12 (some centres not stated) | 0[10 µg/mL]
CC(C(=O)Nc1ccc(C(=O)O)cc1)N1C(=O)c2ccccc2C1=O (configuration not stated) | 0
CCCS(=O)(=O)N1CCC(C(=O)NCCN2CCCC2)CC1 | 0
CCc1ccc(/C=C/C(=O)c2c(C)cc(C)[nH]c2=O)cc1 | 0
C=CCn1c(N)c(C(=O)NC2CCCCC2)sc1=S | 0
Cn1c(=O)oc2cc(S(=O)(=O)N3CCCC(C(=O)NCc4cccs4)C3)ccc21 (configuration not stated) | 0
Nc1[nH]c(=O)ncc1F | 0[10 µg/mL]
NC(=O)c1cnccn1 | 0[10 µg/mL]
Cc1cc(C(=O)CSc2nn3c(=O)c(C(C)(C)C)nnc3s2)c(C)n1-c1ccc(F)cc1 | 40
CCN1CCN(CC(O)COC(C)C)CC1 (configuration not stated) | 40
COc1ccccc1N1CCN(C(=O)CCCCn2c(=O)[nH]c3ccsc3c2=O)CC1 | 0
O=C(CCCCCn1c(=O)[nH]c2ccsc2c1=O)NCc1ccc(F)cc1 | 0
CC1Cc2ccccc2N1c1ncnc2nc[nH]c12 (configuration not stated) | 0
Cc1cc([N+](=O)[O-])nn1Cc1c(F)c(F)c(F)c(F)c1F | 0
O=C(Nc1ncc(Cl)cn1)c1cccs1 | 40
O=C(CN1CCN(Cc2ccccc2Cl)C1=O)NCC1CCCO1 (configuration not stated) | 0
CC(C)NC[C@@H](O)c1ccc(O)c(O)c1 | 0[10 µg/mL]
CCOc1ccc(NC(=O)N(C2CCCCC2)C(C)c2cccnc2)cc1 (configuration not stated) | 0
Cc1c(Br)c([N+](=O)[O-])nn1CC(=O)NCc1cccnc1 | 40
CC(=O)[C@H]1CC[C@H]2[C@@H]3CC=C4C[C@@H](O)CC[C@]4(C)[C@H]3CC[C@]12C | 0[10 µg/mL]
Cc1onc(-c2ccccc2Cl)c1C(=O)Nc1nnc(C(C)C)s1 | 40
Cc1cnc(C(=O)OCC(=O)Nc2oc(-c3ccccc3)c(-c3ccccc3)c2C#N)cn1 | 0

The list goes on, starting with the last 5 of the part before.
SMILES | quorum sensing
CCOc1ccc(NC(=O)N(C2CCCCC2)C(C)c2cccnc2)cc1 (configuration not stated) | 0
Cc1c(Br)c([N+](=O)[O-])nn1CC(=O)NCc1cccnc1 | 40
CC(=O)[C@H]1CC[C@H]2[C@@H]3CC=C4C[C@@H](O)CC[C@]4(C)[C@H]3CC[C@]12C | 0[10 µg/mL]
Cc1onc(-c2ccccc2Cl)c1C(=O)Nc1nnc(C(C)C)s1 | 40
Cc1cnc(C(=O)OCC(=O)Nc2oc(-c3ccccc3)c(-c3ccccc3)c2C#N)cn1 | 0
CSc1ccccc1NC(=O)c1ccc(Cl)s1 | 200
N=c1c(C(=O)NC2CCCC2)cc2c(=O)n3ccccc3nc2n1CCN1CCOCC1 | 40
O=C(CCNS(=O)(=O)c1ccc(Cl)cc1)NCc1ccccn1 | ?
O=C(Nc1ccc(F)cc1)N1CCN(c2ccc3nnc(-c4ccc(F)cc4)n3n2)CC1 | 0
Cc1csc2nc(CNS(=O)(=O)c3ccc4c(c3)OCCO4)cn12 | 0
CCCCOc1ccccc1C(=O)NCCCC(=O)O | 40
CS(=O)(=O)c1ccc2c(c1)SC1=NC(=O)/C(=C/c3ccco3)C(=N)N12 | 0
Cn1c(=O)c2c(SCc3c(F)cccc3Cl)nc(CC(C)(C)C)nc2n(C)c1=O | 0
Cc1cccnc1-n1c(-c2ccco2)nc2ccccc2c1=O | 0
COc1cc(OC)c(C2N(c3ccc(Cl)cc3)C(=O)C3CCCN32)cc1OC (configuration not stated) | 0
CCOc1ccccc1C(=O)Nc1nnc(C(C)C)s1 | 0
Cc1nn(-c2ccc(Cl)cc2)c(N)c1C(O)(CSc1nccn1C)C(F)(F)F (configuration not stated) | 0
Cc1cc2ncn(C(=O)c3c(-c4c(Cl)cccc4Cl)noc3C)c2cc1C | 0
Cc1ccc(NC(=O)c2cc(C)nn2-c2ccccc2)cc1 | 0
CCC(C)(C)C1CCc2c(sc(NC(=O)c3ccoc3C)c2C(N)=O)C1 (configuration not stated) | 40
C=CCc1cccc2cc(C(=O)OCC(=O)c3ccccc3)c(=O)oc12 | 0
O=c1[nH]c(CCl)nc2cc(-c3ccc(Cl)cc3)sc12 | 0
O=C1CN(C(=O)c2ccc(Br)o2)C(c2ccccc2)c2cc(Br)ccc2N1 (configuration not stated) | 0
O=[N+]([O-])O[C@H]1CO[C@H]2[C@@H]1OC[C@H]2O[N+](=O)[O-] | 0[10 µg/mL]
O=C(CSc1nnc(COc2ccc3c(c2)CCCC3)o1)Nc1ccc(F)cc1 | 0
CSc1cc(-c2ccccc2)n(Cc2c(Cl)cccc2Cl)c(=O)c1C#N | 0
S=C(c1ccc(-c2cc(Cl)ccc2Cl)o1)N1CCOCC1 | 0
CCOC(=O)c1ccc(NC(=O)CSc2nc(C)cc(=O)[nH]2)cc1 | ?
CC(=O)O[C@H]1C[C@H](O[C@H]2[C@@H](O)C[C@H](O[C@H]3[C@@H](O)C[C@H](O[C@H]4CC[C@@]5(C)[C@H](CC[C@]6(C)[C@]5(C)C[C@@H](O)[C@]5(C)[C@@H](C7=CC(=O)OC7)CC[C@@]56O)C4)O[C@@H]3C)O[C@@H]2C)O[C@H](C)[C@H]1O[C@@H]1O[C@H](CO)[C@@H](O)[C@H](O)[C@H]1O | 0[10 µg/mL]
CCc1nn(-c2cc(Cl)ccc2OC)c2c1C(=O)CCC2 | 0

(list continues)
SMILES | quorum sensing
O=S(=O)(c1ccc(Cl)cc1)N1CCCC1c1nc(-c2ccc(Cl)cc2)no1 (configuration not stated) | 0
CCOC(=O)C1=C(N)OC2=C(C(=O)CCC2)C1c1cccnc1 (configuration not stated) | 0
CS(=O)(=O)c1nc(-c2ccc(Br)cc2)cc(-c2ccccc2)c1C#N | 0
CCC(C)NC(=O)C(NS(=O)(=O)c1ccc2c(c1)c(=O)n(C)c(=O)n2C)c1ccccc1 (configuration not stated) | 0
O=C(O)COc1ccc2c(c1)OCCO2 | 0
CCCc1cc(NCC2CCCO2)n2c(nc3ccccc32)c1C#N (configuration not stated) | 0
COc1ccc(C)cc1NC(=O)C1CCCN(S(=O)(=O)c2cnc[nH]2)C1 (configuration not stated) | 0
O=C(N/N=C/c1cccs1)c1cc(-c2ccc3ccccc3c2)n[nH]1 | ?
Cc1ccc(S(=O)(=O)N(C)CC(=O)NC2CCCC2)cc1 | 40
CC1CCCN(C(=O)Cn2nnc(-c3cccnc3)n2)C1 (configuration not stated) | 0
COC(=O)C(C)NC(=O)C(C)NC(=O)OCc1ccccc1 (configuration not stated) | 0
NC(=O)CN1CC(c2ccccc2)CC1=O (configuration not stated) | 0
Cc1csc(N(C)C(=O)CSc2nnc(COc3ccccc3C)o2)n1 | 40
CC(=O)N1CCN=C1SCc1c(F)cccc1Cl | 40
Brc1cc(Br)c2nc(-c3cccs3)ccc2c1 | 0
c1ccc(-c2nc(NCc3ccco3)c3ccccc3n2)nc1 | 0
Cc1ccc(-n2c(SCC(N)=O)nc3c([nH]c4ccccc43)c2=O)cc1 | 40
C[C@]12CC[C@H](O)C[C@H]1CC[C@@H]1[C@@H]2CC[C@]2(C)[C@@H](C3=CC(=O)OC3)CC[C@]12O | 0[10 µg/mL]
CCOC(=O)N1CCC(NC(=O)c2cc(C(=O)Nc3ccc(F)cc3F)ccc2CO)CC1 | 40

Among those listed so far, 3 have a CF3 group:
SMILES | quorum sensing
O=[N+]([O-])c1cc(C(F)(F)F)ccc1NCCCCNS(=O)(=O)c1ccc2ccccc2c1 | 0
CCOC(=O)CC(=O)CSc1nc(-c2ccc3c(c2)OCO3)cc(C(F)(F)F)c1C#N | 0
Cc1nn(-c2ccc(Cl)cc2)c(N)c1C(O)(CSc1nccn1C)C(F)(F)F (configuration not stated) | 0

Only part of the results is shown, so the mix of outcomes need not match the whole.
